Resorufin autofl: compounds fluorescent in resorufin spectral region | AID 588 | Compound fluorescence, resorufin region 547/598 nm, buffer; hits give high values | 0.04% of 59,000 active | max dye-equivalent concentration, M; active = above 10 nM dye equivalent; inconclusive = 1 to 10 nM; inactive = 1 nM or less; a few of its hits are not listed in these tables; further: highest value over a series up to 38 µM
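Compounds in 100 mM Tris buffer, pH 8.0, incubated 15 min at room temperature, then read with 547 nm excitation and 598 nm emission filters. Fluorescence was converted to dye-equivalent concentration using an on-plate six-point resorufin standard curve.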
AID923: qHTS Assay for Allosteric/Competitive Inhibitors of Caspase-1: Spectroscopic Profiling in AFC Spectral Region | 1.1% of 75,000 active | Potency, µM (top dose mostly 57.5 µM), inactives show top-dose fluorescence increase, hits mostly activators | compound fluorescence, AFC spectral region (405/520 nm); almost no hit is shown here | AID 923, 2007; active means well fitted activation curve with a large enough effect; inconclusive means small, poorly fitted or top-dose-only effect;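 further: potency means the concentration at half of the fitted maximal effect; 0% is about no effect; scaled to a free AFC standard on each plate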
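Titrations up to 57 uM read every 20 sec for 3 min (405/520 nm) with 50 nM caspase 1 and 5 uM Ac-WEHD-AFC, pH 7.5 HEPES buffer. Fluorescence-vs-time intercept gave baseline, scaled against on-plate AFC standard.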
TSHR ag: activates the human thyroid stimulating hormone receptor; Potency, µM (doses to about 57.1 µM), without a hit: at the top dose activation, actives largely listed as activators; 0.48% of 73,000 active; HEK293-CNG-TSHR cells (CNG channel as cAMP sensor), membrane potential dye, cAMP; P16473; AID 926; active = well fitted activation curve of enough size with the parental cells flat; inconclusive = any curve in the parental cells; inactive = parental cells flat and receptor cells flat or falling; further: potency means the concentration at half of the fitted maximal effect; % of control where 0% means no effect; weak receptor curves with flat parental cells got no call and are not listed
Target sequence (P16473 whole entry, looked up): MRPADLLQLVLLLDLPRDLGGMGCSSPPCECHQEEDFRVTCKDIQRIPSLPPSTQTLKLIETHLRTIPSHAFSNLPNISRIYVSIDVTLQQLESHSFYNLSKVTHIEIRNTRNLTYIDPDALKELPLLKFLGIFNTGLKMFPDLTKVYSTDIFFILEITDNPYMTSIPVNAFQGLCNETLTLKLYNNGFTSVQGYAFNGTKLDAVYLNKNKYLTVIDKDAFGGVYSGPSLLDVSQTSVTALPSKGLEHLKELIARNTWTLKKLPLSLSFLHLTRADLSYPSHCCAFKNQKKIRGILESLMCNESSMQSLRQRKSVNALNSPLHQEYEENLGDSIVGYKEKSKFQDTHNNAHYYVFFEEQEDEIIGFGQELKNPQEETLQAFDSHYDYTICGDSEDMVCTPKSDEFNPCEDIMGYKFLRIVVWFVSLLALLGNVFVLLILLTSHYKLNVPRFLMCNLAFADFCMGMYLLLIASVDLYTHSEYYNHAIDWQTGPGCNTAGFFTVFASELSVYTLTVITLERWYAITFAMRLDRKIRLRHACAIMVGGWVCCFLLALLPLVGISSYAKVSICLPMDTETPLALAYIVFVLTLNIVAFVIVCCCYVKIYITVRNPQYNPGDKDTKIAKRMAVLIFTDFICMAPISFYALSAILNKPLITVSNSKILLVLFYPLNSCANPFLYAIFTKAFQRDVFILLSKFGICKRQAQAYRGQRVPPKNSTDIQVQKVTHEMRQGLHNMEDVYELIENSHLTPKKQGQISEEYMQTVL
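HEK 293 cells stably expressing TSHR and a cAMP-gated CNG channel; parental CNG-only cells as counterscreen. Cells preloaded 60 min with membrane potential dye plus 100 uM RO 20-1724, then compound 30 min; fluorescence read at 590 nm.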
A647 autofl: compound autofluorescence in A647 spectral region. Compound fluorescence, A647 channel (570/671 nm), Tris buffer. max dye-equivalent concentration, M. 59,000 tested, under 10 active; active means above 1 µM dye equivalent; inconclusive means 0.1 to 1 µM; inactive means 0.1 µM or less;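 further: values scaled relative to a standard on each plate; highest value over a series up to 38 µM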
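Tris 100 mM pH 8.0; cpd + A647 stds pin-transferred; 15 min RT; CCD imager, ex 570/em 671. Output = A647-equivalent conc. per cpd conc.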
A488 autofl: A488 region autofluorescence; max dye equivalency, M; 0.1% of 59,000 active; compound autofluorescence, A488 spectral region, dye equivalency; hits give high values; active = above 10 nM dye equivalent; inconclusive = 1 to 10 nM; inactive = 1 nM or less; about half of its hits are not listed in these tables;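 further: highest value over a series up to 38 µM; compound alone in buffer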
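Compounds pin-transferred into 100 mM Tris buffer, pH 8.0, incubated 15 min at room temperature, then imaged with 480 nm excitation/540 nm emission filters. Fluorescence converted to Alexa 488 dye-equivalent concentration via an on-plate six-point A488 standard curve.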
Starred values were filed as active, the others as inactive; i = inactive; ? = inconclusive; nt = no result given; [ ] = another dose, or the depositor's remark.

SMILES	Resorufin autofl	AID923	TSHR ag	A647 autofl	A488 autofl
COc1ccc(S(=O)(=O)N2CCOCC2)cc1C(=O)Nc1ccon1	i	0.3%	3.5%	1e-09	i
O=C(Nc1ccc2c(c1)OCCO2)NC12CC3CC(CC(C3)C1)C2	i	-1.4%	8.2%	2.5e-09	i
Cn1c(SCC(=O)N2c3ccccc3Sc3ccc(Cl)cc32)nnc1-c1ccco1	i	-0.2%	?	2.47e-08	i
Cc1ccc2c(c1)N(Cc1ccc3c(c1)OCO3)C(=O)C(C)O2 (stereo not given)	i	0.9%	?	1e-09	i
Cc1ccc(-c2nnc(SCC(=O)N3CCCc4ccccc43)n2N)cc1	i	0.6%	3.4%	1e-09	i
CC1CCCC(C)N1C(=O)Nc1cccc(Cl)c1 (stereo not given)	nt	3.7%	1.0%	nt	nt
COc1c2c(c3c(c1CCC(=O)O)OC(C)(C)C=C3)OC(C)(C)C=C2	i	2.3%[11.5 µM]	1.3%[11.4 µM]	2.1e-09	i
CCCCc1[nH]nc2c1C1(C(=O)N(CC)c3ccccc31)C(C#N)=C(N)O2 (stereo not given)	i	0.5%	9.1%	1e-09	i
CCOc1ccccc1N(CC(=O)O)S(=O)(=O)c1ccc(C)cc1	i	3.0%	?	5.8e-09	i
COc1cccc(C2/C(=C(\O)c3c(C)nc4c(C)cccn34)C(=O)C(=O)N2CCCN(C)C)c1 (stereo not given)	i	0.5%	-0.5%	1e-09	i
Cc1nc2cccc(C(=O)NCc3ccccc3)c2o1	i	0.5%	3.3%	1.06e-08	i
C=CCn1c(SCC(=O)NCc2ccco2)nc2sc3c(c2c1=O)CCC3	nt	3.2%	?	nt	nt
C[N+](C)(N)Cc1csc(-c2ccc(Cl)cc2)n1	i	1.5%[11.5 µM]	4.6%[11.4 µM]	1.92e-08	i
COc1ccc(N2CCN(C(=O)CC(NC(N)=O)c3cccc(Oc4ccccc4)c3)CC2)cc1 (stereo not given)	i	0.2%	-7.4%	1e-09	i
COc1cccc(CSc2nc3sc(C)c(C)c3c(=O)n2Cc2ccco2)c1	i	2.5%	23.7%	1e-09	i
C=CCn1c(Cc2nc3ccc(Cl)cc3[nH]2)n[nH]c1=S	i	-1.0%	-4.9%	2.74e-08	i
Cc1noc(C)c1-c1ccc2ncnc(NCc3cccs3)c2c1	i	0.7%	?	3.9e-09	i
CCOc1ccc(S(=O)(=O)Nc2cc(Cl)ccc2O)cc1	i	0.5%	-14.0%	5.7e-09	i
CSc1nc(-c2ccco2)nn1C(=O)Cc1ccccc1	i	1.8%	2.4%	9.9e-09	i
COc1ccccc1-n1cnc2cc(C(=O)NCCCN3CCOCC3)ccc21	i	-0.3%	4.0%[11.4 µM]	1.77e-08	i
CCC1(C)N(O)C(C)(C)C(c2ccc(OC)cc2)=[N+]1[O-] (stereo not given)	nt	1.5%	?	nt	nt
Cc1ccc2c(CC(=O)O)coc2c1	nt	2.5%	21.5%	nt	nt
O=C(CCNc1cc(Cl)cc(Cl)c1)c1ccco1	i	0.1%	16.8%	1.52e-08	i
CCOC(=O)CC(=O)CSc1nnc2sc3ccccc3n12	i	nt	nt	6.1e-09	i
Cc1ccccc1-c1n[nH]c(=S)o1	i	-0.2%	16.0%	2.4e-09	i
New compounds follow.
SMILES	Resorufin autofl	AID923	TSHR ag	A647 autofl	A488 autofl
O=C(CN1C(=O)NC2(CCCCCC2)C1=O)N1CCC(Cc2ccccc2)CC1	i	-1.7%	-1.3%	2.7e-09	i
Cc1ccc(-c2csc(N3CCC(NS(=O)(=O)c4ccc5c(c4)OCCO5)CC3)n2)cc1	i	0.5%	-2.0%	5.4e-09	i
O=C(Oc1ccc2[nH]cc(CCN3C(=O)c4ccccc4C3=O)c2c1)c1ccco1	i	0.5%	-2.0%	4.2e-08	i
O=C1C2CCCN2C(c2ccccc2)N1c1nccs1 (stereo not given)	i	2.2%	0.2%	1e-09	i
Cc1cc(NC(=O)C2CC2)ncc1NC(=O)C12CC3CC(CC(C3)C1)C2	i	-0.2%	6.3%	1.5e-08	i
CCOC(=O)C1CCCN(C(=O)c2ccc3c(c2)NC(=O)C(N2CCOCC2)S3)C1 (stereo not given)	i	-0.9%	0.7%	4.61e-08	i
CCOC(=O)CNC(=O)CSc1nc2cccnc2n1Cc1ccccc1	i	-0.2%	-11.0%	3.32e-08	i
Cn1cccc1-c1nc2ccc(NC(=O)c3cccs3)cc2[nH]1	i	2.2%	4.4%	2.78e-08	i
COC(=O)CSc1nnc(-c2ccc(S(=O)(=O)N3CCC(C)CC3)cc2)o1	i	0.6%	?	8e-09	i
Cc1ccc(C(C(=O)NC2CCCC2)N(Cc2cccnc2)C(=O)c2snc(C(N)=O)c2N)o1 (stereo not given)	i	1.2%	29.4%	9.1e-09	i
N[C@@H](CCCP(=O)(O)O)C(=O)O	nt	-2.6%	14.2%	nt	nt
N=c1n(CCO)c2ccccc2n1Cc1ccccc1Cl	i	1.6%	?	2.3e-09	i
CC(=O)NCC(=O)N(c1c(C)n(C)n(-c2ccccc2)c1=O)C1(C(=O)NC2CCCC2)CCCCC1	i	-1.5%	1.3%	1e-09	i
CC1CCCN(c2nc3c(c(=O)n(C)c(=O)n3C)n2CCSc2nc3ccccc3s2)C1 (stereo not given)	i	-0.3%	nt	3.79e-08	i
O=C(NCCc1ccc(Cl)cc1)C1CCN(S(=O)(=O)c2cccc3nonc23)CC1	i	1.2%	-4.3%	1.3e-09	i
Cc1cccc(N(CC(=O)NCc2ccc3c(c2)OCO3)C(=O)CCC(=O)Nc2ccccn2)c1C	i	-4.0%	21.7%	1e-09	i
COc1ccc(OC)c(CNC(=O)COc2cc(=O)n(C)c3ccccc23)c1	i	0.7%	2.3%[11.4 µM]	1e-09	i
CCc1ccc2[nH]c(=O)c(CN(Cc3ccco3)S(=O)(=O)c3ccc4c(c3)OCCO4)cc2c1	i	2.0%	29.9%	1e-09	i
O=C(Nc1ccc2ncccc2c1)Nc1ccc2ncccc2c1	i	-1.4%[11.5 µM]	-2.9%[11.4 µM]	1e-09	i
O=C(NCCCCCNC(=O)c1ccco1)c1ccco1	i	1.7%	9.7%	2.78e-08	i
c1cc(-c2noc(-c3ccc4c(c3)OCO4)n2)ccn1	i	3.9%	5.9%	4.86e-08	i
O=C1C2=C(Nc3cc([N+](=O)[O-])ccc3N2)O[C@@H]1c1ccc([C@H]2OC3=C(Nc4ccc([N+](=O)[O-])cc4N3)C2=O)cc1	i	-1.4%[11.5 µM]	-2.5%[11.4 µM]	6.9e-09	i
CC(C)(C)n1ncc2c(=O)n(CC(=O)N3CCCc4ccccc43)cnc21	i	0.7%	12.2%	4.6e-09	i
CC[N+](CC)(CC)CC[C@](O)(c1ccccc1)C1CCCCC1	i	-0.2%[25.7 µM]	2.3%[25.6 µM]	1e-09	i
Cc1cccc(N(C(=O)CNC(=O)c2ccco2)C(C(=O)NC2CCCC2)c2cccnc2)c1 (stereo not given)	i	-2.7%	-4.0%	1.43e-08	i
New compounds follow.
SMILES	Resorufin autofl	AID923	TSHR ag	A647 autofl	A488 autofl
O=C(c1cccc(Cl)c1)N1CCN(C2CCCCCC2)CC1	i	0.3%	3.4%[11.4 µM]	7.3e-09	i
COc1ccc(-c2noc(N(C)CC(=O)Nc3cccc(C(F)(F)F)c3)n2)cc1	i	0.5%	0.7%	3.51e-08	i
COc1cccc2c3c(c(C)nc12)CC(C)O3 (stereo not given)	i	-0.4%	2.1%	8.4e-09	i
CCn1nnnc1SCC(=O)Nc1cc(OC)cc(OC)c1	i	0.8%	0.3%	1e-09	i
O=C(O)Cc1cc2ccccc2nc1C(=O)O	nt	-2.3%	-2.0%	nt	nt
CCCOc1ccc(C2C(C(=O)c3ccco3)=C(O)C(=O)N2CCN2CCOCC2)cc1OC (stereo not given)	i	2.8%	1.5%	3e-09	i
Cc1ccc(N2CN=c3s/c(=C\c4cccnc4)c(=O)n3C2)cc1	i	nt	nt	1e-09	i
Cc1ccc2c(c1)N(CCCC(=O)NCCCN1CCCC1=O)C(=O)CO2	nt	1.8%	1.7%	nt	nt
Cc1ccc2c(c1)NC(=O)C(CC(=O)NC1CCCCC1C)O2 (stereo not given)	nt	-0.9%	?	nt	nt
Cn1c(Cl)nc2ccccc21	i	-0.7%	0.3%	1.76e-08	i
Cc1csc2ncc(C(=O)Nc3ccccc3Cl)c(=O)n12	nt	-0.2%	?	nt	nt
O=c1cc(N2CCC3(CC2)OCCO3)[nH]c(=O)n1C1CCCCC1	i	-2.2%	1.4%	5.4e-09	i
CC(O)CCCCCCC/C=C/C=C/C(N)=O (stereo not given)	nt	1.5%[11.5 µM]	2.8%[11.4 µM]	nt	nt
O=C(CSc1nnc(-c2cccs2)n1-c1ccccc1)N1CCc2ccccc21	i	0.7%	2.8%	5.4e-09	i
CCN(CCCn1c(=S)[nH]c2ncccc2c1=O)c1ccccc1	i	0.1%	-3.0%	1.7e-09	i
CCn1c(N2CCN(C(=O)C34CC5CC(CC(C5)C3)C4)CC2)nc2ccccc21	i	0.6%	11.4%	4.5e-09	i
CCN1CCN(C(=O)C(NS(=O)(=O)c2ccc3nc(C)sc3c2)C(C)C)CC1 (stereo not given)	nt	-1.6%	0.7%	nt	nt
COc1cc(OC)cc(C(=O)N(Cc2cc3cc(C)ccc3[nH]c2=O)C(C)C)c1	i	3.3%	8.5%	4.7e-09	i
COc1ccc(CCNc2oc(COc3ccccc3)nc2C#N)cc1	i	nt	nt	2.7e-09	i
CCc1nnc(NC(=O)c2ccc(S(=O)(=O)N(CCOC)CCOC)cc2)o1	i	0.9%	?	2.6e-09	i
Cc1[nH]c(=O)[nH]c1CN1CCCCC1	i	-1.5%	-8.6%	2.53e-08	i
CCC(C)(C)C(=O)O[C@H]1C[C@@H](C)C=C2C=C[C@H](C)[C@H](CC[C@@H]3C[C@@H](O)CC(=O)O3)[C@H]21	i	nt	2.8%	1.4e-09	i
CCN1C(=O)C(C(=O)NC(C)c2ccccc2)C2CC1(C)Oc1ccccc12 (stereo not given)	i	2.8%	15.9%	3.24e-08	i
CCCc1c(CC)c(=N)c2ccccc2n1C	i	-0.7%	?	2.93e-08	i
CC(=O)/C(=C\c1ccccc1F)C(=O)c1ccccc1	i	0.6%[11.5 µM]	3.9%[11.4 µM]	1.3e-08	i
Further entries:
SMILES	Resorufin autofl	AID923	TSHR ag	A647 autofl	A488 autofl
CCn1cc(C(=O)OCC(=O)N(C)C2CCS(=O)(=O)C2)c(=O)c2ccc(C)nc21 (stereo not given)	i	2.2%	8.9%	1e-09	i
O=C(NCC(c1ccc(F)cc1)N1CCOCC1)c1ccc(Br)o1 (stereo not given)	i	1.6%	?	1e-09	i
CC[N+](CC)(CC(=O)Nc1c(C)cccc1C)Cc1ccccc1	i	-0.8%[25.7 µM]	?	1e-09	i
COc1cccc(NC(=O)c2nc3nc(C)cc(C(F)F)n3n2)c1	nt	1.4%	-9.6%	nt	nt
CCCCn1c(CCNC(=O)c2cccs2)nc2ccccc21	i	1.9%	-0.2%	2.82e-08	i
CN(C)c1nc2sc3c(c2c(=O)n1C)CC(C)(C)OC3	i	nt	nt	7.32e-08	i
O=C(Cn1c(=O)c2c(ncn2Cc2ccccc2)n(Cc2ccccc2)c1=O)NC1CC1	i	0.2%	-5.4%	1e-09	i

Reprinted at random: 5 entries already listed.
SMILES	Resorufin autofl	AID923	TSHR ag	A647 autofl	A488 autofl
CCCOc1ccc(C2C(C(=O)c3ccco3)=C(O)C(=O)N2CCN2CCOCC2)cc1OC (stereo not given)	i	2.8%	1.5%	3e-09	i
O=c1cc(N2CCC3(CC2)OCCO3)[nH]c(=O)n1C1CCCCC1	i	-2.2%	1.4%	5.4e-09	i
Cc1ccc2c(CC(=O)O)coc2c1	nt	2.5%	21.5%	nt	nt
CSc1nc(-c2ccco2)nn1C(=O)Cc1ccccc1	i	1.8%	2.4%	9.9e-09	i
CC(C)(C)n1ncc2c(=O)n(CC(=O)N3CCCc4ccccc43)cnc21	i	0.7%	12.2%	4.6e-09	i

Some of the compounds tested, so the mix of outcomes need not match the whole.
